High-throughput results (PubChem)
BJeLR viability – BJeLR cell viability loss; BJeLR (HRASV12) viability, CellTiter-Glo ATP luminescence, 48 h; reference of the scale not given here; actives 0.17% (n = 300,000); AID 1554; inhibition, % (concentration not given with the values);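 active = replicate mean above 50%; inconclusive = above 50% but judged a plate artefact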;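 also: 50 nL library stock added to about 25 µL; numbers are from one replicate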
RN4220 kill – S. aureus RN4220 growth inhibition; inhibition, % (no concentration beside the values); OD600, 16 h; actives 0.33% (n = 330,000);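 active = z-score of -3 or lower and OD600 up to 0.18 on both plates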;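 also: plate controls were untreated cells for no effect and reference antibiotic for full effect; stock transfer was 100 nL into about 80 µL; one replicate is shown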
Mtb hypoxia rep – inhibitors of hypoxia-regulated fluorescent reporter in Mycobacterium tuberculosis | actives 0.1% (n = 300,000) | fluorescence inhibition, % (concentration not given with the values) | M. tuberculosis hypoxia-regulated fluorescent reporter, fluorescence | AID 1159583;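 active = 35 to 45% if threefold the growth effect, above 45% if 1.5-fold the growth effect; inactive = the rest, general growth blockers included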;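 also: wells of about 50 µL received 100 nL stock; 0% = vehicle wells and 100% = reference inhibitor wells; whole bacteria with a GFP reporter of the hypoxia response; strong numbers were not always called active; many hits fall short of the cut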
Bead autofluor – flagged as autofluorescent in microsphere protease counterscreen | compound autofluorescence counterscreen, microsphere flow cytometry; hits give high values | fluorescence intensity (concentration not given with the values) | actives 3.1% (n = 360,000) | AID 624483;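 active = at least 3 SD above the mean of all compounds, about 16000 in these data; inconclusive = too few beads counted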;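 also: 100 nL of 1 mM stock went into each well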
ugtP null kill – compounds lethal to S. aureus RN4220 ugtP deletion mutant | actives 0.54% (n = 330,000) | OD600 growth, 16 h; some inactives read as strong as hits | growth inhibition, % (concentration not given with the values);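 active = z-score under -3 and OD600 up to 0.15 on both plates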;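 also: plate controls were untreated wells for no effect and antibiotic for full effect; wells of about 80 µL received 100 nL stock; the first replicate is given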
PrP 5UTR inh – suppresses PrP 5' UTR mRNA reporter expression; cell-based PrP 5' UTR mRNA reporter, plate reader; inhibition, % (no concentration beside the values); actives 0.35% (n = 340,000);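 active = every replicate at 50% or more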;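 also: 0 = median of the neutral control wells; tested in H4 reporter cells; numbers are from one replicate; inactives centre near -14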
Mtb hypoxia rep growth – further read-out of Mtb hypoxia rep, marked with its call; growth inhibition, %; measured here: M. tuberculosis growth (absorbance);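 0% = vehicle and 100% = reference antibiotic; read after six days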
Numbers without * were called inactive; ? = inconclusive; nt = not tested or not shown.

SMILES	BJeLR viability	RN4220 kill	Mtb hypoxia rep	Mtb hypoxia rep growth	Bead autofluor	ugtP null kill	PrP 5UTR inh
COc1ccc(-c2nc3ccccc3nc2-c2ccc(OC)c(OC)c2)cc1OC	-2	1.9	7	-4	3922	5	-9
Cc1ccc(Nc2nc3ccccc3n3nnnc23)cc1	23	1.0	-13	-2	4022	9	-12
O=C(Nc1cccc(Cl)c1)c1cnn2cccnc12	4	5.1	5	8	23465*	4	-91
Cc1cccc(NC(=O)C[n+]2cccc(C)c2)c1	-6	6.0	10	-1	4619	11	2
Cc1noc(C)c1COc1ccc(C(=O)OCC(=O)Nc2cccc(S(=O)(=O)N3CCOCC3)c2)cc1	8	5.0	9	2	2564	0	-20
COCCN(C(=O)CCC(=O)Nc1nccs1)C(C(=O)NC(C)(C)C)c1ccc(F)cc1 (configuration not stated)	6	5.5	13	4	5139	8	-16
N#C/C(=C\c1ccc(O)c(Br)c1)C(=O)NCc1ccccc1	-3	4.3	-7	-15	4088	-16	-21
O=C(NCC(=O)N1CCN(C(=O)c2ccco2)CC1)c1cccc(Cl)c1	nt	1.9	4	-2	4384	18	-19
COc1ccc(-c2ocnc2C(=O)NCc2nn(-c3ccccc3)nc2C)cc1	1	2.3	-6	-2	3433	0	-23
CCC1(c2ccc(F)cc2)NC(=O)N(CC(=O)Nc2ccc(-c3nc4ccc(C)cc4s3)cc2)C1=O (configuration not stated)	-10	-1.8	2	1	11300	-16	-66
Cc1ccc(N2CC(C(=O)N3CCN(C(=O)c4ccco4)CC3)CC2=O)cc1 (configuration not stated)	-2	5.7	5	4	5292	2	-22
CC1CCCCC1NC(=O)CN1CCN(Cc2ccccc2Cl)C1=O (configuration not stated)	-8	-4.3	-5	3	2463	-9	-9
Cn1c(CCNC(=O)c2ccco2)nc2cc(NC(=O)c3ccco3)ccc21	-4	5.7	7	18	4879	1	-29
CCOc1ccccc1NC(=O)CN(c1ccc(C)cc1)S(=O)(=O)c1c(C)noc1C	nt	3.2	8	-2	4618	14	-9
CC(=O)C[C@@H](O)CC(=O)[C@@H]1OC(=O)CCCCC/C=C/Cc2ccccc21	nt	23	1	-7	3101	10	-14
Cc1ccc(NC(=O)c2c(Cl)n(C)c3ccccc23)cc1	3	nt	nt	nt	2549	nt	-66
c1ccc2c(c1)ncn2Cc1nnc2sc(-c3ccncc3)nn12	10	2.7	-1	3	8640	-1	-15
C=C[C@]12CC[C@H](OC(C)=O)CC1=CCC1C2CC[C@@]2(C)C1CCC21OCCO1 (some centres not stated)	nt	-5.1	4	6	3685	92*	-28
Cc1ccc(/C=C/C(=O)Nc2ccc(S(=O)(=O)Nc3ncccn3)cc2)cc1	-2	1.4	-1	2	3720	0	-7
Cc1cc(C)nc(NC(=O)Nc2ccc3c(c2)OCO3)c1	-7	4.5	6	0	1943	-2	-44
COC(=O)C(NC(=O)c1ccccc1)(Nc1cc(C)cc(C)n1)C(F)(F)F (configuration not stated)	-10	9.6	5	22	4176	-6	-6
O=C1c2ccccc2-c2cccc(NS(=O)(=O)c3ccc(C(F)(F)F)cc3)c21	2	97*	6	6	3347	97*	-19
COc1ccc(CCNC(=O)c2sc3nc4n(c(=O)c3c2C)CCC4)cc1	-3	-0.3	-9	-9	?	1	-3
Nc1scc[n+]1Cc1cccc2cccnc12	4	5.1	-2	9	3426	3	1
CC(=O)Nc1ccc(NC(=O)CSc2nnc(-c3cc(C)[nH]n3)n2N)cc1	-15	5.8	3	0	6279	11	-4
(further entries)
SMILES	BJeLR viability	RN4220 kill	Mtb hypoxia rep	Mtb hypoxia rep growth	Bead autofluor	ugtP null kill	PrP 5UTR inh
COc1cc(CN(C2CCCCC2)S(=O)(=O)c2ccc(S(=O)(=O)N(C)C3CCCCC3)cc2)cc(OC)c1OC	3	0.8	6	11	2434	6	-14
COc1cccc(C(=O)NNC2OC(CO)C(O)C2O)c1 (configuration not stated)	1	-3.5	-3	-1	2271	-6	-11
Cc1nc2ccccc2c(=O)n1N=C/C=C/c1ccccc1	nt	4.9	1	12	nt	-3	nt
O=C(N/N=C/c1ccc(Br)s1)c1cccnc1	0	nt	nt	nt	2489	nt	-23
CCN(CC)S(=O)(=O)c1ccc(N2CCc3ccccc3C2)nc1	0	nt	nt	nt	5327	nt	-57
Cc1ccc(CN2CCC(CNC(=O)Nc3ccccc3F)CC2)cc1	-3	0.7	7	5	3106	13	-1
Cc1ccc(Cn2c(CN3CC(C)OC(C)C3)nc3c2c(=O)[nH]c(=O)n3C)cc1 (configuration not stated)	14	3.3	1	6	20485*	6	-12
COc1cc(C2SCC(=O)Nc3c2c(C)nn3-c2ccccc2)cc(OC)c1OC (configuration not stated)	-4	-0.8	6	11	19341*	-1	-29
CC(=O)N1CCCN(Cc2cn(-c3cc(C)ccc3C)nc2-c2ccccc2)CC1	-10	15	13	8	4094	7	-13
O=C(CCS(=O)(=O)c1ccc(Br)cc1)Nc1ccccn1	0	8.8	6	-4	2060	18	-27
C/C(=N\NC(=O)CSc1nc2ccccc2o1)c1cccc(O)c1	-2	nt	nt	nt	3397	nt	-16
O=C(Nc1ccc(O)c(-c2nc3ccccc3s2)c1)C1=COCCO1	4	-8.7	-6	-10	10477	6	-9
O=C(COc1ccccc1)NCC(=O)N1CCCCCC1	nt	1.1	3	0	3754	3	-8
CCOC(=O)c1c(C)[nH]c(C)c1S(=O)(=O)N1CCN(C(=O)c2ccco2)CC1	7	1.2	-2	6	5086	4	-18
Cc1nn(-c2ccccc2)c(Cl)c1/C=C1\SC(=S)N(C)C1=O	7	12	3	1	1971	-8	-19
COc1cc(NC(=O)COc2ccc(C)c(C)c2)ccc1NC(=O)c1ccco1	1	4.7	3	-3	4365	-10	-14
CS(=O)(=O)c1nc(-c2ccccc2)c(-c2ccccc2)[nH]1	2	3.0	8	4	2409	10	-15
O=C(Nc1ccc(N2CCCC(O)C2)cc1)c1snc2c(=O)[nH]cnc12 (configuration not stated)	-12	1.3	2	0	6231	11	-15
O=C1c2ccccc2C(=O)N1CN(C(=O)c1ccccc1)c1ccc(O)cc1	5	2.7	9	6	2561	12	-9
Cc1ccc(NS(=O)(=O)c2cccc(C(=O)NCCc3c[nH]c4ccccc34)c2)c(C)c1	-1	-3.5	-3	11	2189	-21	-18
Cc1cc(C)nc(NN=CC2=C(N3CCOCC3)/C(=C\c3ccc(Cl)cc3)CC2)n1	nt	5.2	1	11	nt	1	nt
CC1CCCC(C)N1CCNC(=O)CCn1nc(-c2ccccc2)ccc1=O (configuration not stated)	-2	7.4	9	6	2437	1	1
CN(CC(=O)Nc1cccc(F)c1)CC(=O)N(C)CC(=O)Nc1ccccc1Br	nt	2.2	-1	8	3207	3	91*
COC(=O)C1=C(C(=O)OC)C2Nc3ccccc3[C@@]23CC(C(=O)OC)N(C(=O)NC2CCCCC2)C3=N1 (some centres not stated)	nt	2.2	6	9	nt	10	nt
O=C(Cc1n[nH]c(=O)[nH]c1=O)N/N=C/c1cccc(O)c1	8	nt	nt	nt	8931	nt	-14
(list continues)
SMILES	BJeLR viability	RN4220 kill	Mtb hypoxia rep	Mtb hypoxia rep growth	Bead autofluor	ugtP null kill	PrP 5UTR inh
O=C(N/N=C/c1cccnc1)c1cccc(NC(=O)c2ccccc2Cl)c1	-1	nt	nt	nt	3699	nt	-1
COc1ccc(S(=O)(=O)N2CCOC2CNC(=O)C(=O)NCCCN(C)C)cc1C (configuration not stated)	6	0.5	10	0	5453	1	-16
COc1ccc2[nH]c3c(c2c1)CCN1C(=O)C(CC(=O)NCc2ccco2)C[C@H](C(=O)N2CCCCC2)[C@@]31CCc1ccccc1 (some centres not stated)	nt	-2.0	-2	4	3218	-2	-7
Cc1ccc2cc(COC(=O)C3CCCO3)c(=O)[nH]c2c1 (configuration not stated)	3	8.0	10	6	3401	-4	4
COc1ccc(C(=O)ON=C(c2cccs2)C(C)(C)C)cc1	nt	2.2	13	0	nt	33	nt
Cc1ccc(C2(c3noc(CN(C)Cc4ccccn4)n3)CCCC2)cc1	9	13	2	1	4189	-60	-19
Cc1ccc2oc(C(=O)NCC3CCOCC3)c(C)c2c1	-8	3.2	7	0	5909	2	-26
O=c1c2[nH]c3ccccc3c2nc2n1CCCS2	3	8.9	2	0	4605	-3	-56
Cc1cccc(C(=O)N2CCc3cc(-c4nc(NC(=O)Cn5nnc6ccccc6c5=O)sc4C)ccc32)c1	10	6.1	14	0	nt	-9	nt
CCN(CC)C(=O)c1[nH]cnc1C(=O)NC(CCCCNC(=O)OC(C)(C)C)C(=O)OC(C)(C)C (configuration not stated)	nt	5.6	-2	3	nt	4	nt
CCCCn1c(C)nc2cc(S(=O)(=O)N3CCOCC3)ccc21	nt	6.0	6	10	3765	3	1
COc1cc(C(C(=O)NC2CCCCC2)N(Cc2cccs2)C(=O)Cc2c[nH]c3ccccc23)cc(OC)c1OC (configuration not stated)	0	1.7	3	2	23578*	-12	-26
COC(=O)Nc1nc2c(s1)CCCC2	-8	7.8	3	1	9628	-2	-23
Cc1nc(C(F)(F)F)c(C(=O)NN=C(N)c2cccnc2)s1	nt	3.5	6	-3	nt	7	nt
O=C(/C=C/c1ccc(S(=O)(=O)N2CCOCC2)cc1)N1CCN(c2ccc(F)cc2)CC1	11	3.0	-7	-8	nt	-2	-19
Oc1cncc(Cc2ccccc2)c1	12	-2.6	1	13	3961	3	-13

Complete entries, quoted from the list. Values in the order: BJeLR viability | RN4220 kill | Mtb hypoxia rep | Mtb hypoxia rep growth | Bead autofluor | ugtP null kill | PrP 5UTR inh
Cc1cccc(C(=O)N2CCc3cc(-c4nc(NC(=O)Cn5nnc6ccccc6c5=O)sc4C)ccc32)c1 is listed as 10 | 6.1 | 14 | 0 | nt | -9 | nt
COc1ccc(C(=O)ON=C(c2cccs2)C(C)(C)C)cc1 is listed as nt | 2.2 | 13 | 0 | nt | 33 | nt
Cc1ccc2oc(C(=O)NCC3CCOCC3)c(C)c2c1 is listed as -8 | 3.2 | 7 | 0 | 5909 | 2 | -26
CCN(CC)C(=O)c1[nH]cnc1C(=O)NC(CCCCNC(=O)OC(C)(C)C)C(=O)OC(C)(C)C (configuration not stated) is listed as nt | 5.6 | -2 | 3 | nt | 4 | nt

Looked up above.
COc1cc(C(C(=O)NC2CCCCC2)N(Cc2cccs2)C(=O)Cc2c[nH]c3ccccc23)cc(OC)c1OC (configuration not stated) in RN4220 kill = 1.7
CCN(CC)C(=O)c1[nH]cnc1C(=O)NC(CCCCNC(=O)OC(C)(C)C)C(=O)OC(C)(C)C (configuration not stated) in Mtb hypoxia rep = -2
CCCCn1c(C)nc2cc(S(=O)(=O)N3CCOCC3)ccc21 in Mtb hypoxia rep growth = 10
COc1ccc(S(=O)(=O)N2CCOC2CNC(=O)C(=O)NCCCN(C)C)cc1C (configuration not stated) in Bead autofluor = 5453
O=C(/C=C/c1ccc(S(=O)(=O)N2CCOCC2)cc1)N1CCN(c2ccc(F)cc2)CC1 in Mtb hypoxia rep growth = -8
Cc1cccc(C(=O)N2CCc3cc(-c4nc(NC(=O)Cn5nnc6ccccc6c5=O)sc4C)ccc32)c1 in Mtb hypoxia rep = 14
